CSC inhib – cancer stem cell viability inhibitors, primary screen, luminescence; cancer stem cell-like cells viability; inhibition, % at 7.5 µM; 300,000 compounds, 1.1% hits; AID 2717, 2010;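 active means mean at 75% or more and at least half the replicates too; inconclusive means mean and replicates disagree; tested in HMLE shEcad cells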;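 further: 0% = median of negative and 100% = median of positive control wells; the first replicate is given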
PABP FP inh – PABP poly(A) RNA binding inhibitors, primary screen, biochemical, fluorescence polarization, uHTS | 290,000 compounds, 1% hits | Polyadenylate-binding protein 1 (Homo sapiens), P11940 | inhibition, % at 35 µM | AID 2014, 2009;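 active means 50% or more with normal probe brightness, or confirmed in later tests; inconclusive means above 50% with abnormal brightness, or retests that disagree; inactive means below 50% or failed in later tests; about a fifth of its hits are not listed in these tables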;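 further: calls also rest on retests at 20 µM and on dose response follow-up; controls were probe without protein and protein plus probe with vehicle; some compounds called inactive have numbers as strong as hits; many hits fall short of the cut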
HIV Env fusion – inhibitors of HIV-1 Env-driven cell-cell fusion, primary screen, HeLa-JRFL effector, CEM21 target cells, luciferase. inhibition, % at 12.3 µM. 360,000 compounds, 1.1% hits;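 active means mean replicate inhibition score of at least 50 and every replicate individually at or above 50; inconclusive means only one of the two criteria met; inactive means mean below 50 and not all replicates reaching 50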;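 further: 0% = plate neutral controls and 100% = maraviroc near 300 nM; one replicate is shown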
Rce1 inhib – yeast Rce1p protease inhibitors, primary screen, biochemical, fluorescence, cell-free homogeneous. CAAX prenyl protease 2 (Saccharomyces cerevisiae (strain ATCC 204508 / S288c)), Q03530. yeast membranes, quenched prenylated peptide cleavage fluorescence. calls only. 290,000 compounds, 0.27% hits;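 active means fall in fluorescence gain of 50% or more versus controls, with final raw signal at or below 3038400; inconclusive means same 50% fall but final raw signal above 3038400; inactive means fall in fluorescence gain under 50%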;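 further: plate controls were neutral control wells for no effect and wells lacking membranes for full effect; tested at 10 µM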
Target sequence (Q03530 whole entry, looked up): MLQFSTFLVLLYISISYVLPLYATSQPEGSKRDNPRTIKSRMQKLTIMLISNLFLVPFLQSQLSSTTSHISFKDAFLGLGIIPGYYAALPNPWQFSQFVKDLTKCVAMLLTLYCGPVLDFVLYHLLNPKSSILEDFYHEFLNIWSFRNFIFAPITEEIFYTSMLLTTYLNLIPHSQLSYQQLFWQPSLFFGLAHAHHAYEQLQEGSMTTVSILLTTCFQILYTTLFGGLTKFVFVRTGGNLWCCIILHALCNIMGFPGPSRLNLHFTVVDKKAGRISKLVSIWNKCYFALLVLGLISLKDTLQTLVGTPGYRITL
UUG fidelity – modulators of yeast start codon fidelity, primary screen, whole organism, S. cerevisiae, single point, plate reader; AID 602363, 2012; 350,000 compounds, 0.13% hits; S. cerevisiae UUG-firefly luciferase reporter, luminescence/redox ratio; activity score, % at 18.7 µM;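 active means replicate mean at a twofold rise or more, about +100% in these data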;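 further: firefly luciferase made from a UUG start codon reports start codon fidelity; reporter light over untreated wells divided by growth signal over untreated wells; some hits fall short of that in this replicate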
eIF4H inh – human eIF4H binding inhibitors, primary screen, translation initiation inhibitor project, biochemical, uHTS, fluorescence polarization; Eukaryotic translation initiation factor 4H (Homo sapiens), Q15056; eIF4H fluorescence polarization binding assay; inhibition, % at 35 µM; 290,000 compounds, 0.94% hits;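 active means 50% or more with normal probe brightness, or confirmed in later tests; inconclusive means above 50% with abnormal brightness, or retests that disagree; inactive means below 50% or failed in later tests; about a fifth of its hits are not listed in these tables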;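 further: calls also rest on retests at 20 µM and on dose response follow-up; 0% = protein and probe with vehicle and 100% = probe without protein; strong numbers were not always called active; many hits fall short of the cut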
MT1-MMP act inh – blockers of MT1-MMP proenzyme processing, primary screen, HT1080 RFP-PRO-GFP cells, GFP/RFP fluorescence; GFP/RFP ratio change, % at 20 µM; AID 651647, 2012; 360,000 compounds, 0.061% hits; Matrix metalloproteinase-14 (Homo sapiens), P50281; GFP/RFP ratio fluorescence, overnight; percent of plate control window, DMSO zero;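 active means GFP/RFP ratio change of at least 30% with cell ATP level not reduced by more than half and red fluorescence within 50% of control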; further: strong numbers were not always called active
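Assay system: HT1080 RFP-PRO-GFP cells. Benchmarks: DMSO vehicle wells and RFP-L50D-GFP reporter cell wells. Times: overnight cell settling, then overnight compound exposure, 37 °C, 5% CO2. Compound: 20 µM single dose, 1% DMSO. Read-out basis: GFP/RFP fluorescence ratio.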
MT1-MMP act inh RFP – second read-out of MT1-MMP act inh, no call of its own (marks repeat the call); RFP signal change, %; measured here: RFP expression control read;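 0 = vehicle wells; hits needed this value within 50% of zero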
The depositor's hits bear a star; i = inactive; ? = inconclusive; . = no result given. Not all compounds are listed; rates above refer to the full screens.

SMILES	CSC inhib	PABP FP inh	HIV Env fusion	Rce1 inhib	UUG fidelity	eIF4H inh	MT1-MMP act inh	MT1-MMP act inh RFP
CS(=O)CC(O)(c1ccc(F)cc1)C1CC1 (stereo not drawn)	.	.	1	.	5	.	-5	2
Cc1ccc(-c2nnc(C)c(N3CC(C)OC(C)C3)n2)cc1 (stereo not drawn)	-6	-4	.	i	-5	-5	-6	-2
N#C/C(=C/c1ccc(F)cc1)c1nc(CCN2C(=O)c3ccccc3C2=O)cs1	15	-11	-42	i	-6	?	-3	-3
COc1cccc(NC(=O)Nc2ccc(C(C)(C)C)cc2)c1	.	3	-98	i	.	3	3	-14
O=C(NC1CCCC1)C1CC(=O)N(c2ccc(F)c(Cl)c2)C1 (stereo not drawn)	-8	.	-4	i	-11	.	-2	-3
CN(C)c1ccc(C(C(=O)NC2CCCC2)N(Cc2cccnc2)C(=O)c2snc(C(N)=O)c2N)cc1 (stereo not drawn)	14	7	-2	i	-2	0	0	1
O=C(CCC(=O)OCC(=O)c1ccc([N+](=O)[O-])cc1)NC1CCCCC1	.	9	15	i	1	2	2	3
Cc1cccc(-n2cc(C(=O)O)c(=O)cc2C)c1	-3	-5	6	i	-11	2	6	6
CC(NS(=O)(=O)c1ccc(OCC(=O)NCc2ccccn2)cc1)c1ccccc1 (stereo not drawn)	-16	8	-5	i	-5	2	-2	1
Cn1c(CCC(=O)OCC(=O)NCC(F)(F)F)nc(=O)c2ccccc21	8	-4	-10	i	.	-2	-1	4

Entries of single compounds from above:
Cn1c(CCC(=O)OCC(=O)NCC(F)(F)F)nc(=O)c2ccccc21 is listed with CSC inhib: 8; PABP FP inh: -4; HIV Env fusion: -10; Rce1 inhib: i; UUG fidelity: .; eIF4H inh: -2; MT1-MMP act inh: -1; MT1-MMP act inh RFP: 4
O=C(CCC(=O)OCC(=O)c1ccc([N+](=O)[O-])cc1)NC1CCCCC1 is listed with CSC inhib: .; PABP FP inh: 9; HIV Env fusion: 15; Rce1 inhib: i; UUG fidelity: 1; eIF4H inh: 2; MT1-MMP act inh: 2; MT1-MMP act inh RFP: 3

(more compounds)
SMILES	CSC inhib	PABP FP inh	HIV Env fusion	Rce1 inhib	UUG fidelity	eIF4H inh	MT1-MMP act inh	MT1-MMP act inh RFP
COC(=O)c1sccc1S(=O)(=O)Nc1ccc(N2CCCCC2)cc1	-3	15	-1	i	.	5	5	-7
COc1cccc(-c2ccc(NC(=O)C3CCCN(Cc4cnc(N(C)C)s4)C3)cc2)c1 (stereo not drawn)	40	-8	32	i	-6	-11	4	-8
O=C(NCC1COCCO1)c1ccc2nc(Cc3cccc(Cl)c3)oc2c1 (stereo not drawn)	-4	3	-4	.	15	11	-2	-1
COc1ccc(-n2ncc(C(C)NS(=O)(=O)c3ccc(C)s3)c2C)cc1 (stereo not drawn)	-21	-5	-5	i	-7	-10	-2	-5
Clc1ccc(-c2csc(N3CCN(c4ccccc4)CC3)n2)cc1	1	7	.	i	-22	2	2	8
CCC(C)n1c(SCC(=O)Nc2cc(C)on2)nc2ccccc2c1=O (stereo not drawn)	.	-2	-50	i	-7	-7	-1	-5
CC(Oc1ccccc1)C(=O)N=C1SC2CS(=O)(=O)CC2N1Cc1ccccc1 (stereo not drawn)	3	-4	-11	i	-10	-6	0	2
COc1ccc(-c2nc3c(C)cc(Br)cn3c2Cc2ccccc2)cc1OC	.	.	15	.	-2	.	-4	-4
COc1cccc(CNC(=O)c2ccccc2-c2ccccc2C(=O)O)c1	-1	-6	-10	i	-9	2	-4	-2
O=C(COC(=O)CCSc1ccccc1)NCc1ccccc1Cl	3	-6	-28	i	.	-3	7	7
Cc1cccc(NC2CCCCC2NS(=O)(=O)c2ccccc2)c1 (stereo not drawn)	.	5	13	i	5	1	0	-3
CN(CCc1ccccc1)C(=O)c1ccc(NC(=O)Cc2cccc(NC(=O)C3CCN(C(=O)CCc4ccccc4)CC3)c2)cc1	.	.	11	.	-14	.	7	-16
O=C1CCCc2ccccc2N1	.	-1	-4	i	.	3	0	2
Nc1cc(=O)[nH]c(SCC(=O)Nc2cc([N+](=O)[O-])ccc2Cl)n1	-1	0	14	.	.	-4	1	-2
O=C(/C=C/c1cccc([N+](=O)[O-])c1)N1CC[C@@]2(O)CCCC[C@H]2C1	1	4	3	i	21	0	-5	0
CC1COc2ccccc2N1C(=O)c1ccc(F)cc1 (stereo not drawn)	-13	-13	17	i	-16	-10	3	6
O=C(/C=C/c1ccc([N+](=O)[O-])cc1)OCc1cnc(-c2ccccc2)o1	-2	5	0	i	.	-2	-1	-2
CCCC1(C(=O)OC)NC(c2ccc(OC)c(OC)c2)C2C(=O)N(c3ccc4c(c3)OCO4)C(=O)C21 (stereo not drawn)	-20	-2	-82	.	-12	-8	0	5
COc1nc(OC)nc(N2CCC(C(=O)NCc3ccco3)CC2)n1	1	6	-61	i	-2	-2	8	0
COC(=O)c1cc(OC)c(OC)cc1NC(=S)N1CCCC1	2	3	7	i	.	-2	6	5
C1=CCN(c2nc(N3CCOCC3)nc(N3CCCc4ccccc43)n2)CC1	.	.	-4	.	-7	.	-4	-3
O=C(O)CCc1nc(-c2ccccc2Cl)no1	-10	4	.	i	1	2	2	2
OC[C@@H]1CN(Cc2ccc(Cl)cc2)C[C@H](n2cnc3c(NC4CCC4)ncnc32)O1	.	.	0	.	12	.	10	-9
O=C(NCc1ccccn1)Nc1cccc(NC(=O)NCc2ccccn2)c1	1	-10	-87	i	-23	14	-10	-2
CC(NC(=O)C1CCC(=O)N1Cc1ccc(F)cc1)c1ccc2c(c1)OCCO2 (stereo not drawn)	10	-3	12	i	11	-2	-3	2

Quoted at random: 4 entries already listed.
SMILES	CSC inhib	PABP FP inh	HIV Env fusion	Rce1 inhib	UUG fidelity	eIF4H inh	MT1-MMP act inh	MT1-MMP act inh RFP
CS(=O)CC(O)(c1ccc(F)cc1)C1CC1 (stereo not drawn)	.	.	1	.	5	.	-5	2
OC[C@@H]1CN(Cc2ccc(Cl)cc2)C[C@H](n2cnc3c(NC4CCC4)ncnc32)O1	.	.	0	.	12	.	10	-9
CC(Oc1ccccc1)C(=O)N=C1SC2CS(=O)(=O)CC2N1Cc1ccccc1 (stereo not drawn)	3	-4	-11	i	-10	-6	0	2
Cc1ccc(-c2nnc(C)c(N3CC(C)OC(C)C3)n2)cc1 (stereo not drawn)	-6	-4	.	i	-5	-5	-6	-2
